# Six1-Eya2 blk: blocks human Six1 binding to Eya2; activity change, % (concentration not given with the values); hit rate 0.56% among 360,000; AlphaScreen GST-Six1/His-Eya2 binding, biochemical; stronger effect = lower value; control for the full effect not named in the record; Q15475+O00167; AID 651725; in the data active = activity change below about -65%; inconclusive = about -30% to -65%; inactive = above about -30%; also: % is scaled to controls: 0 for no effect and ±100 for the full control effect
#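 Homogeneous AlphaScreen proximity assay pairing GST-Six1 with His-tagged Eya2 (added as 5X mix: 250 nM and 500 nM) in 50 mM Tris pH 8.0, 300 mM NaCl, 1 mM TCEP. Glutathione donor and nickel acceptor beads; 1 h, 37 °C, dark.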
# TRPML1 ag: activates the human TRPML1 channel; Q9GZU1; activation, % (concentration not given with the values); hit rate 0.12% among 410,000; TRPML1-expressing cells, Ca2+ dye fluorescence, FDSS; host cell line not named in the record; reference of the full effect not given here; in the data active = activation above about 50%; inconclusive = about 30% to 50%; inactive = below about 30%; also: 0% is about no effect; the text of the record puts the active cut at 80%
# Target sequence (Q9GZU1 whole entry, looked up): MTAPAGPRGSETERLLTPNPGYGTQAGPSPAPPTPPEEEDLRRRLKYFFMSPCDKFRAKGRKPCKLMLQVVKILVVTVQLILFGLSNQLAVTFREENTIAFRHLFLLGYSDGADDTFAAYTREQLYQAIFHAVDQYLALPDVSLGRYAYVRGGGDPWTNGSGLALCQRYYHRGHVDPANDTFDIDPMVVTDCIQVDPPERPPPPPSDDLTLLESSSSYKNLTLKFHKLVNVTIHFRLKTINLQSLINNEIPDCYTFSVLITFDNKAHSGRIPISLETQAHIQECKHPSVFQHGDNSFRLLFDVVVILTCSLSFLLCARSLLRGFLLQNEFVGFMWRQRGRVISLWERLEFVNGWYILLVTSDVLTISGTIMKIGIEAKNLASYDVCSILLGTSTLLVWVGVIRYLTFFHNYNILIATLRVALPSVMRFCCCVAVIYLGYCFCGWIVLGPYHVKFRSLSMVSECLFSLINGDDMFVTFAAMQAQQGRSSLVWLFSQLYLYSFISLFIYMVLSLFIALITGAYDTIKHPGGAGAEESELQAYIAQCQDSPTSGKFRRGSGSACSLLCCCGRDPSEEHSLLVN
#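 TRPML1-DL cells, Tet-induced overnight (~16 h, 37 degrees C), loaded 45-90 min at room temperature with Ca8 no-wash calcium dye plus quencher. FDSS fluorescence: 10 s baseline, compound pin-transfer, 110 s agonist read, then EC80 54-4 (4uM final) and 110 s antagonist read.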
# TRPML1 blocker: inhibitors of human TRPML1 channel; Q9GZU1; TRPML1-inducible cells, Ca2+ dye fluorescence, FDSS; stronger effect = lower value; inhibition of EC80 agonist-evoked calcium signal; activity change, negative = inhibition, % (concentration not given with the values); hit rate 0.02% among 390,000; in the data active means activity change below about -50%; inconclusive means about -30% to -50%; inactive means above about -30%;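 also: stimulus is agonist 54-4 at its EC80 concentration; % is scaled to controls: 0 for no effect and ±100 for the full control effect; compound concentration not given in the record; the text of the record puts the active cut at -80%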
#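 Tet-induced TRPML1-DL cells loaded with Ca8 no-wash calcium dye were read kinetically on FDSS. Compound addition was followed by EC80 agonist 54-4 (4 uM final); inhibition was read over 110 s.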
# D2 PAM: human D2 receptor positive allosteric modulation; DiscoveRx D2 beta-arrestin cells, luminescence, 90 min; 100% = 57 uM dopamine signal; potentiation, % (test concentration not listed); hit rate 0.23% among 360,000; P14416; active = potentiation of 50% or more; inconclusive = 30% to 50%; inactive = 30% or less;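 also: compound concentration not given in the record; tested on top of an EC20 dose of dopamine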
# Target sequence (P14416 whole entry, looked up): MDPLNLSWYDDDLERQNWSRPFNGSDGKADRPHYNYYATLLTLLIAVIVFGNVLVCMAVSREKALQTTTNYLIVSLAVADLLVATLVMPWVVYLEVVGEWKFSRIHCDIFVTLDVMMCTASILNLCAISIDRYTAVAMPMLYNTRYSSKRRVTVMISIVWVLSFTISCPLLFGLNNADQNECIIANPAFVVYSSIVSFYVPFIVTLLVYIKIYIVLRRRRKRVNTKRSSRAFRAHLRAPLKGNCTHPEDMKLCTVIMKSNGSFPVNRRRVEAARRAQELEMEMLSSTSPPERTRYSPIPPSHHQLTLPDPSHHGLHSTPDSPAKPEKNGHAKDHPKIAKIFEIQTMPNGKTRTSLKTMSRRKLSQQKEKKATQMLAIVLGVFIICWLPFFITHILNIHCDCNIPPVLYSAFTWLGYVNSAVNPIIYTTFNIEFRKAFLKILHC
#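 D2 cells co-treated with compound plus 50 nM dopamine (EC20) for 90 min at 37 deg C to detect potentiation. Beta-arrestin recruitment was read as enzyme-fragment luminescence after 1 h at ambient temperature. Full response was set by 57 uM dopamine.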
# PINK1 expr mod: PINK1 expression modulation; PINK1 immunofluorescence, high-content cytometry, 24 h; Potency, µM (highest dose often 76.6 µM), inactives show at the top dose activation (PINK1 increase), most hits filed as activators; hit rate 0.2% among 410,000; AID 624263; active = well fitted activation curve with a large enough effect; inconclusive = small, poorly fitted or top-dose-only effect; inactive = flat fitted curve, though single readings scatter; cell line not stated here;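 also: potency is read from the fitted curve at half-maximal effect; % of control where 0% means no effect; nearly all actives have a fitted effect of over 65% in size; a mitochondrial uncoupler was the plate control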
#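 Readout is PINK1 immunofluorescence, quantified alongside mitochondrial, cell and nuclear markers by laser-scanning microplate cytometry. Cells from a stable line were exposed to compound titrations (5 concentrations) for 24 hours, with CCCP controls.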
# D2 ag: agonists of human D2 dopamine receptor (beta-arrestin). P14416. hit rate 0.084% among 360,000. AID 624465. activation, % (concentration not given with the values). DiscoveRx PathHunter D2 beta-arrestin, luminescence, 90 min; 100% = 57 uM dopamine signal; in the data active = activation above about 40%; inconclusive = about 15% to 40%; inactive = below about 15%; also: compound concentration not given in the record; the text of the record calls up to 30% inactive
#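 DiscoveRx PathHunter D2 beta-arrestin cells (2,100/well) attached overnight, then compound-stimulated 90 min at 37 C in HBSS/10 mM HEPES/0.1% Tween-20 buffer; beta-galactosidase complementation read by luminescence after 1 h at ambient temperature. Dopamine 57 uM final (EC100) as control.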
# An asterisk follows results filed as active; ? = inconclusive; nt = not tested or not shown; & = joins results of further samples; [ ] = another dose, or the depositor's remark.
SMILES,Six1-Eya2 blk,TRPML1 ag,TRPML1 blocker,D2 PAM,PINK1 expr mod,D2 ag
C=CC[C@@H](CC(=O)NCCO)C(=O)N[C@@H](COC(=O)[C@@H](CC=C)Cc1ccc(F)cc1)Cc1ccccc1,0.6,0.5,21.2,-11.9,0.7%,-4.2
O=C(NC12CC3CC(CC(C3)C1)C2)N1CC2Cc3cccc(=O)n3C(C2)C1 (stereo unspecified),5.2,-0.4,-3.2,-1.7,-0.8%,0.9
CCCCn1c(SCC(=O)c2ccc3c(c2)OCCO3)nnc1-c1ccoc1C,7.7,2.2,0.7,-1.8,-2.2%,0.4
Cc1ccccc1C(=O)N1CCN(c2ccc(NC(=O)c3ccc4c(c3)OCO4)cc2)CC1,1.9,-0.5,-4.8,-6.0,-1.2%,-1.6
Cc1ccc(C)n1-c1nn(S(=O)(=O)c2cccc(C(F)(F)F)c2)c2cccc(F)c12,5.3,-0.5,7.2,-1.1,3.1%,4.6
CN(Cc1ccon1)C(=O)CC1C(=O)NCCN1Cc1cccc(Oc2ccccc2)c1 (stereo unspecified),-0.3,-0.1,-15.7,-8.7,2.1%,-1.1
CCCc1ccc(OC(=O)c2cccs2)cc1,39.0,-0.3,5.4,-2.5,9.7%[38.3 µM],1.4
CCOc1ccc(Cl)cc1-c1cc(C(=O)NCC2CCCCC2)[nH]n1,-8.4,-0.4,nt,-22.2,-0.2%,1.8
O=C(c1cccc([N+](=O)[O-])c1)N1CCCC(C(=O)N2CCc3ccccc3C2)C1 (stereo unspecified),-2.5,-1.1,2.3,-6.4,0.2%,1.0
O=C(Cn1c(=O)oc2cc(S(=O)(=O)N3CCCCC3)ccc21)Nc1cccc(Cl)c1,nt,0.3,-9.9,nt,12.7%,nt

# The final 5 entries of the part before come first, to join the parts.
SMILES,Six1-Eya2 blk,TRPML1 ag,TRPML1 blocker,D2 PAM,PINK1 expr mod,D2 ag
CN(Cc1ccon1)C(=O)CC1C(=O)NCCN1Cc1cccc(Oc2ccccc2)c1 (stereo unspecified),-0.3,-0.1,-15.7,-8.7,2.1%,-1.1
CCCc1ccc(OC(=O)c2cccs2)cc1,39.0,-0.3,5.4,-2.5,9.7%[38.3 µM],1.4
CCOc1ccc(Cl)cc1-c1cc(C(=O)NCC2CCCCC2)[nH]n1,-8.4,-0.4,nt,-22.2,-0.2%,1.8
O=C(c1cccc([N+](=O)[O-])c1)N1CCCC(C(=O)N2CCc3ccccc3C2)C1 (stereo unspecified),-2.5,-1.1,2.3,-6.4,0.2%,1.0
O=C(Cn1c(=O)oc2cc(S(=O)(=O)N3CCCCC3)ccc21)Nc1cccc(Cl)c1,nt,0.3,-9.9,nt,12.7%,nt
O=C(COC(=O)Cc1cccc(C(F)(F)F)c1)Nc1ccccc1,0.5,-0.3,11.3,-19.6,-1.6%,0.1
CN(Cc1ccccc1)c1cc2c(c3c1ccn3C)C1CCC2C1 (stereo unspecified),?,-0.6,nt,-1.5,12.1%,-2.8
Cc1cccc(C)c1NC(=O)NC1(C(=O)N2CCCC2)CCCCC1,2.2,-0.4,14.9,-6.0,-0.7%,-2.9
O=C(Nc1ccc(Cl)cn1)C1CCCN1S(=O)(=O)c1cccc2ccccc12 (stereo unspecified),-3.2,2.6,11.6,-3.6,nt,0.6
CCCC(=O)Nc1ccc(C(=O)NCc2ccccn2)cc1,5.2,0.2,7.3,-0.6,3.8%,1.6
CCCCN(C=O)c1c(CC)nc2c(OCCn3cccc3)cccn12,-15.1,-0.2,nt,-2.3,1.4%,-4.5
COc1cccc(C(NC(C)=O)c2nc(-c3cccc(C(C)C)c3)cs2)c1 (stereo unspecified),-6.4,2.0,11.4,-14.0,0.7%,0.8
Cc1ccc(CN2CCN(Cc3cccc(OCCO)c3)CC2CCO)o1 (stereo unspecified),3.5,-0.6,15.3,-14.1,1.9%,0.9
CSc1nc(O)c(C(c2ccc(C)cc2)c2c(O)nc(SC)[nH]c2=O)c(=O)[nH]1,-1.2,-0.6,6.2,-4.1,3.5%,1.7
Cc1cccc(S(=O)(=O)NC(=O)C2(C)CCN2C(=O)c2ccc(C3CCCCC3)cc2)c1 (stereo unspecified),9.9,-0.8,nt,-3.3,-0.1%,8.3
O=C(NC1CCCCC1)c1ccc2c(c1)N(Cc1ccc(Cl)cc1)C(=O)c1ccccc1S2=O (stereo unspecified),nt,0.0,26.6,nt,2.4%,nt
CN1CCc2c(sc3nc(NN)n(-c4ccc(Cl)cc4)c(=O)c23)C1,-8.0,-0.2,-1.3,9.5,-0.5%,4.9
O=C(CSCc1cccc(Cl)c1)NCc1ccc2c(c1)OCO2,6.8,1.1,9.0,-9.4,-0.7%,-2.3
COc1ccc(S(N)(=O)=O)cc1C(=O)NNC(=O)c1cccc(S(=O)(=O)N2CCOCC2)c1,-0.9,-0.2,-3.1,-12.5,0.5%,-1.1
COCCN1C(=O)c2oc3ccccc3c(=O)c2C1c1ccc(O)c(OC)c1 (stereo unspecified),-4.2,0.2,16.4,-2.1,2.6%,-2.0
Nc1cc(=O)[nH]c(=O)n1Cc1ccccc1,0.8,0.0,-16.8,-11.4,0.9%,-5.0
CC1CCN(C(=O)CSc2nc3ncccc3[nH]2)CC1,-0.6,0.2,43.2,-9.6,3.3%,-4.1
CC(=O)c1ccc(S(=O)(=O)N(CCCO)Cc2cc3cc4c(cc3[nH]c2=O)OCCO4)cc1,14.9,1.6,0.8,-3.3,-2.1%,-0.1
O=C1C2=C(NC(=S)NC2c2ccc(Cl)cc2)NC(c2ccc(Cl)cc2)N1c1ccc(Cl)cc1 (stereo unspecified),-3.7,0.0,-7.0,-1.1,-1.9%,7.9
CCc1ccc(NC(=O)CCS(=O)(=O)c2ccc3c(c2)CCN3C(C)=O)cc1,-1.5,-0.5&-0.3,26.4&6.0,-13.2,0.3%&9.4%,3.6
CC1=Nn2c(nnc2-c2cc(C)[nH]n2)SC1,3.8,-0.2,-10.6,1.4,2.8%,-1.0
COc1ccc(-c2noc(-c3cccc(OC)c3OC)n2)cc1OC,1.4,-0.5,7.6,-0.5,15.7%,-2.9
CCc1nc2oc3cc(OC)ccc3c(=O)c2c(=O)n1Cc1ccco1,-18.4,-1.0,7.4,1.8,2.9%,-0.3
O=C(Nc1ccccc1C(=O)Nc1nnc(C(F)(F)F)s1)c1ccccc1Cl,5.5,3.1,1.3,0.6,?,-3.0
COc1cccc(NS(=O)(=O)c2ccc3[nH]cc(C(=O)NC4CCCCC4)c(=O)c3c2)c1,nt,-0.4,-3.1,nt,1.1%,nt
CCOC(=O)C(=O)N(C)c1c(CC)nc2c(OCc3ccc(OC(F)F)cc3)cccn12,4.1,-0.2,-7.6,-4.7,1.0%,-4.9
Cc1ccc(Oc2ccc(C=O)cn2)cc1,3.5,-0.5,0.7,-3.2,-0.4%,5.5
CC(C)(C)n1nnnc1C(c1ccccn1)N1CCN(C(c2ccccc2)c2ccccc2)CC1 (stereo unspecified),3.2,0.4,-6.0,-18.0,-0.2%,2.7
Cc1cccc(CS(=O)(=O)Cc2ccc(C(=O)NC3CCCCC3)o2)c1,3.4,-0.9,-2.0,-8.9,1.0%,-1.2
CCn1cc(C(=O)NCCc2ccc(Cl)cc2)c(=O)c2cc(S(=O)(=O)N(C)C)ccc21,-0.9,nt,nt,-3.8,4.1%,1.4
COc1ccc(C(=O)NCc2cccnc2)cc1,-1.9,0.4,25.0,-10.0,13.5%[38.3 µM],-1.8
CC(C)c1ccc(C(C)NCCS(=O)(=O)c2ccc(Br)cc2)cc1 (stereo unspecified),-0.3,1.7,6.2,-23.6,2.4%,-4.6
COc1ccccc1C(=O)C1Nc2ccccc2-c2nnc(SC)nc2O1 (stereo unspecified),-9.9,-0.2,-1.6,1.9,-0.8%,0.1
CS(=O)(=O)N1CCN(c2ccc(NC(=O)CSc3ccc(Cl)cc3)cc2)CC1,3.9,0.3,-0.6,0.6,nt,1.5
COc1cccc(C(C(=O)NCC2CCCO2)N(CC2CCCO2)C(=O)CN2C(=O)c3ccccc3S2(=O)=O)c1 (stereo unspecified),5.5,-0.6,-1.8,-24.6,1.5%,-2.2
Cc1cc(C)c(NC(=O)c2ccc(CN3CCc4ccccc4C3)cc2)c(C)c1,-5.0,-0.8,-11.8,-43.0,3.4%,-0.8
Nc1nc(SCc2ccc(Cl)c(Cl)c2)n[nH]1,-5.4,1.1,6.0,-1.1,2.5%,4.1
COC(=O)c1ccc(NC(=O)CC2C(=O)N(c3cccc(F)c3)C(=O)N2CC(C)C)cc1 (stereo unspecified),nt,0.6,3.6,nt,1.0%,nt
Cc1cccc(OCc2nnc(SCc3cc(=O)[nH]c4ccccc34)n2-c2ccccc2)c1,-15.0,1.2,-29.7,-21.6,1.1%,3.9
O=C(NNC(=O)c1ccccc1F)c1cccc(-n2cccc2)c1,?,0.0,6.9,-6.3,6.9%,-3.4
Cc1noc(C)c1CSCC(=O)Nc1cc(S(C)(=O)=O)ccc1Cl,5.3,0.5,32.1,-18.8,2.6%,-2.0
CC1C(c2ccccc2)N(C)CCC12NC(=O)NC2=O (stereo unspecified),-0.8,2.3,10.1,-2.3,-0.1%[38.3 µM],-2.3
COc1ccc2nc(-c3ccccc3)nc(SCC(=O)NCC3CCCO3)c2c1 (stereo unspecified),3.7,-2.0,3.1,-3.5,3.5%,-1.4
O=C(Nc1cccc(-n2cccn2)c1)C1CCCN(Cc2cccc(F)c2F)C1 (stereo unspecified),-10.4,-0.8,-13.4,-43.3,1.3%,-3.1
CC(=O)c1sc(NC(=O)C2CC(=O)N(Cc3ccco3)C2)nc1-c1ccccc1 (stereo unspecified),13.4,0.8,17.2,-8.0,-1.5%,-3.7
CSc1ccccc1NC(=O)COC(=O)c1ccccc1O,7.8,-0.2,-10.1,-2.9,2.2%,-1.2
Cc1cccc(NC(=S)NC2CC3C=CC2C3)c1 (stereo unspecified),-1.1,0.7,0.6,-10.0,-0.7%,-0.2
COc1cc2c(C(=O)N3CCN(c4cccc(C(F)(F)F)c4)CC3)cn(CC(C)C)c(=O)c2cc1OC,nt,2.1,-7.0,nt,0.8%,nt
Cc1ccc(OCCn2c(CCCO)nc3ccccc32)cc1,2.5,3.0,17.1,8.5,-3.8%,0.2
COc1ccc(OC)c(CCNC(=O)CS(=O)(=O)Cc2nc(-c3ccccc3Cl)oc2C)c1,-12.2,-0.5,5.7,1.3,0.3%,3.0
Cc1ccc(-c2nsc(SCC(=O)NCc3ccc4c(c3)OCO4)n2)cc1,-1.7,1.6,-6.3,-11.5,6.2%,0.8
C#CCOCCOCCOCCNc1nc(N2CCN(C(=O)CCCCCCCCCCNC(=O)Cn3cc(C[C@@H](C)O)nn3)CC2)nc(N2CCN(C(=O)CCCCCCCCCCNC(=O)Cn3cc(C[C@@H](C)O)nn3)CC2)n1,-4.9,0.1,10.2,6.8,?,4.5

# High-throughput results deposited in PubChem by National Center for Advancing Translational Sciences (NCATS).
